Assay outcomes: PubChem, National Center for Advancing Translational Sciences (NCATS)
hNpr1 antagonist – antagonists of human natriuretic peptide receptor Npr1. P16066. HEK293 hNpr1 GloSensor cGMP, ANP-stimulated luminescence. Potency, µM (top dose mostly 46.3 µM), for the others: top-dose activity change, negative = inhibition, hits mostly inhibitors. actives 1.6% (n = 76,000). AID 1347048; active = well fitted inhibition curve with a large enough effect; inconclusive = small, poorly fitted or top-dose-only effect; inactive = no such curve, though single readings can be large or run the other way;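 note: nearly all actives have a fitted effect of over 60% in size; nearly all hits also lower the signal before the agonist is added; a reference antagonist and vehicle were the controls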
Target sequence (P16066 whole entry, looked up): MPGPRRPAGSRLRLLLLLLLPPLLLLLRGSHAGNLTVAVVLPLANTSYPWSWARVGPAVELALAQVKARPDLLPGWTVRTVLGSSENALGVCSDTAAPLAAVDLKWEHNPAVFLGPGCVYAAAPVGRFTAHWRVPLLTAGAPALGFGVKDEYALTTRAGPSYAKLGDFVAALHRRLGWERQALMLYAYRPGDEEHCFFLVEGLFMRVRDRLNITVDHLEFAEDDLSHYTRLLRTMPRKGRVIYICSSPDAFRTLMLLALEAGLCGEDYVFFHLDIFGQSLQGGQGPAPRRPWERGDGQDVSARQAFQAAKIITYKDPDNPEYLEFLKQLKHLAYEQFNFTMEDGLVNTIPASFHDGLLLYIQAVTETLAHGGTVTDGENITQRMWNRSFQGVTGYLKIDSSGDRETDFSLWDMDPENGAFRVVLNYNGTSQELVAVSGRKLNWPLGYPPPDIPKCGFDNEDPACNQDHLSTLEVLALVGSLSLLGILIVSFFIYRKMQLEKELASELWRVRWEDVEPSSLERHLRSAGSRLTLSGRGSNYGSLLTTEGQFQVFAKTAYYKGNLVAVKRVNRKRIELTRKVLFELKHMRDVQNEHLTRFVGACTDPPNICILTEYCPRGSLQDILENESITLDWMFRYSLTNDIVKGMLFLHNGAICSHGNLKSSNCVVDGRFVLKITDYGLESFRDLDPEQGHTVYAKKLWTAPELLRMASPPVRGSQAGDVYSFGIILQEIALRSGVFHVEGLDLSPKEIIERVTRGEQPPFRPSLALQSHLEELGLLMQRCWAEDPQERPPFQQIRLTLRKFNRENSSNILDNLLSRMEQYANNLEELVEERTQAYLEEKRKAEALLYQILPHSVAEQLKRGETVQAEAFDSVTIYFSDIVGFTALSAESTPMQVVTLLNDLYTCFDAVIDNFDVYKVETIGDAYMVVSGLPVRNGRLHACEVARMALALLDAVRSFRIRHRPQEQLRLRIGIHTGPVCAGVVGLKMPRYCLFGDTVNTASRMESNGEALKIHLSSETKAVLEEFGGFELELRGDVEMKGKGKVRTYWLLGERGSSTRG
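Compound pre-incubated 30 min at room temperature on GloSensor-loaded HEK293 cells stably carrying hNpr1 and the pGS-40F cGMP biosensor. Stimulation uses hNppA at 0.1 nM final; luminescence is taken at baseline and 20 min post-agonist.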
* = called active by the depositor; ? = inconclusive; [ ] = another dose, or the depositor's remark. % is set by controls: 0 for no effect and ±100 for the full control effect; potency is the fitted concentration of half-maximal effect. Not all compounds are listed; the hit share may differ from the screen's.

hNpr1 antagonist | SMILES
-13% | Cn1nc(-c2nncn2Cc2ccccc2)c2c1CCN(C(=O)c1[nH]nc3c1COc1ccccc1-3)C2
-9%[70.6 µM] | C#CCOc1ccc(C(=O)N[C@@H]2CN(Cc3cccc(OC)c3)CCC[C@H]2O)cc1
1% | N#Cc1ccc(C(=O)N2CC(F)(F)C[C@H]2c2nc(C3CC3)no2)cc1
1% | CCOCCOC1CCN(C(=O)c2nn(C)c3ccccc23)CC1
4% | Cc1noc([C@H]2CCN(C(=O)C3CCCCC3)C[C@H]2NC(=O)C2CC2)n1
-15% | Cc1ccc(N2CCC(NC(=O)c3ccc(F)c(F)c3)C2=O)cc1C (stereo not drawn)
-22% | COc1ccccc1CN1CCN(C(=O)c2ccc3c(c2)C(O)CCCCCN3C)CC1 (stereo not drawn)
6% | O=C(C1CCN(C(=O)N2CC3CC(C2)[C@H]2CCCC(=O)N2C3)CC1)N1CCC(N2CCCCC2)CC1 (stereo partly drawn)
-11% | CNC(=O)Nc1ccc(C2(C(=O)Nc3ccc4c(c3)CCC4)CCC2)cc1
1% | O=C(NCC1CCNC1)C1CCN(c2nc(-c3ccccc3)nc3c2CCC3)CC1 (stereo not drawn)
1% | CCN1CC(Nc2ccc(-c3nc(CCCc4ccccc4)no3)cn2)CC1=O (stereo not drawn)
-12%[70.6 µM] | COc1ccc(CN2CC[C@H](c3nc4c(C(N)=O)cccc4[nH]3)C2)cc1
-3% | Cc1nc(C)n(CCCn2cnc3cn(C)nc3c2=O)n1
9%[70.6 µM] | COc1cccc(-c2nccc3c(=O)cc(N4CCOCC4)oc23)c1
3%[70.6 µM] | COCCn1cnc2ccc(-c3cccc(C)c3)nc2c1=O

Following part.
hNpr1 antagonist | SMILES
0% | CCOc1ccccc1CN1C[C@@H](NC(=O)COC)C[C@H]1CO
-13% | CCOc1ccccc1C1NC(=O)N(CC(=O)Nc2cc(Cl)ccc2OC)C2=C1C(=O)OC2 (stereo not drawn)
0% | COc1ccc(CCC(=O)N2CCC3(CC2)CC(N(C(C)=O)C2CC2)CCO3)cc1 (stereo not drawn)
0% | O=C(Nc1ccccc1)N1CCC(Oc2ccccc2-c2nc(-c3ccccc3)no2)C1 (stereo not drawn)
2% | COc1ccccc1CNC(=O)CN1CC2CC(C1)[C@H]1CCCC(=O)N1C2 (stereo partly drawn)
-8% | CCC(=O)N1CCCN(CCOC)c2ccccc21
3% | COc1ccc(C(=O)N2CCCOCCNC(=O)CC2)cc1
0% | CCCCN1C(=O)CC[C@H]2CN(C(=O)Cc3cnccn3)CC[C@H]21
11% | COc1ccc(-c2ccccc2NC(=O)C2CCCN(C3CCOCC3)C2)cc1 (stereo not drawn)
0% | O=C(COc1ccc(NC(=O)C2CC2)cn1)NCc1ccccc1
5% | CSc1cccc(NC(=O)N[C@H]2C[C@@H](C(=O)N[C@@H](CCCNC(=O)C=C(C)C)C(N)=O)N(C(=O)C=C(C)C)C2)c1
-8% | COc1ccccc1CNc1ncncc1-c1nc(-c2ccccc2)no1
-7%[70.6 µM] | COCCn1cnc2ccc(-c3ccc4c(ccn4C)c3)nc2c1=O
-3% | Cc1ccc(CNC(=O)CC2=C3CCCCC3N(Cc3ccc(F)cc3)C2=O)cc1 (stereo not drawn)
2% | COc1ccc(CC(=O)Nc2ccc([C@H]3OCC(=O)N(Cc4ccncc4)[C@@H]3CO)cc2)cc1

(cont.)
hNpr1 antagonist | SMILES
-16% | Cc1ccsc1C(=O)NCCc1noc(C2CC2)n1
-3% | Cc1ncc2c(c1CNC(=O)Cn1cnc3ccccc3c1=O)CCNC2
-22%[70.6 µM] | Cn1cc(-c2cccc(CO)c2)c2nc(COc3ccc(Cl)cc3)cn2c1=O
13% | COCCCNC(=O)c1ccc2c(c1)n(Cc1cccc(F)c1)c(=O)c1ccnn12
3% | O=C1[C@@H]2C[C@@H](O)CN2C2(CN(Cc3cccc(OC(F)(F)F)c3)C2)C(=O)N1Cc1cccc(Cl)c1
3% | Cc1cnc(C)c(N2CCN(Cc3nc(-c4sccc4C)oc3C)CC2)n1
-16% | O=C(C1CCCN(C2CCN(c3ncnc4sccc34)CC2)C1)N1CCCC1 (stereo not drawn)
-14% | O=C(Cn1cccc1-c1nc(-c2ccc(F)cc2)no1)N1CCN(c2ccccc2F)CC1
-14% | Cc1cccc(NC(=O)Cn2c(-c3cccc(Cl)c3)nc(C)c(CCO)c2=O)c1
0% | Cc1cccc(CCNc2ncc(C(C)(C)C(=O)O)c(N3CCOCC3)n2)n1
-1%[70.6 µM] | CC(C)N1CC[C@H](c2nnc(-c3cccnc3)o2)C1
-3%[70.6 µM] | CCN(CC)[C@H]1[C@@H]2OC[C@@H](O2)[C@@H](NCc2ccc(-c3ccccc3)cc2)[C@@H]1O
-1% | Cc1cnc(C(=O)N2CC(=O)N(c3ccccc3Cl)CC2C)cn1 (stereo not drawn)
4% | CNC(=O)[C@@H]1CN(C(=O)c2ocnc2C)C[C@H]1COC
-1% | Cn1cc(-c2ccccc2)cc1C(=O)N1CCCC1

Continued.
hNpr1 antagonist | SMILES
-23% | COc1cccc(-c2cc3c(=O)n(CCNC(=O)COc4ccccc4)ccn3n2)c1
-11%[70.6 µM] | c1ccc(-c2ccc3ncc(Nc4ccc5c(c4)OCCO5)n3n2)cc1
-2% | CCCN1C(=O)Cc2ccccc2C1C(=O)NCc1ccc2c(c1)OCO2 (stereo not drawn)
1% | CCNC(=O)CN1CN(c2ccccc2)C2(CCN(C(=O)NC34CC5CC(CC(C5)C3)C4)CC2)C1=O
-11%[70.6 µM] | CC#CCn1cc2c3c(cccc31)[C@H](CC(C)C)N[C@H](C(=O)NCCOC)C2
-4% | COc1ccc(Cn2c(C3CCN(C(=O)c4ccc(C)s4)CC3)n[nH]c2=O)cc1
4% | COc1ccccc1NC(=O)Cn1c(-c2ccc(Cl)cc2)nc(C)c(CCO)c1=O
-2%[70.6 µM] | COc1ccc2c(c1)CN(C1CCC(CO)CC1)CC[C@H]1COC(=O)N21 (stereo partly drawn)
4% | O=C(C1CCN(C(=O)N2CC3CC(C2)[C@H]2CCCC(=O)N2C3)CC1)N1CCCCCC1 (stereo partly drawn)
-7%[70.6 µM] | CN1Cc2c(cc(N3CCOCC3)nc2-c2ccccc2OC(F)(F)F)C1=O
8% | COC(=O)c1ccc2nc(C[C@@H]3C[C@@H](C(C)C)[C@H](CNC(=O)CCCC(=O)O)C=C3C)[nH]c2c1
-2% | Cc1cnc(C2CC2)n1CC1CCN(C(=O)C2CC2)CC1
3% | O=S(=O)(c1cccnc1)N1CCC(N(Cc2cccnc2)C2CCOCC2)CC1
-4% | CCc1cc(C(=O)N2CCC3(CC2)CC(c2ccccc2)C(=O)N3)cs1 (stereo not drawn)
0% | O=C([C@@H]1C[C@H](Oc2ccccc2)CN1C(=O)C1CCCCC1)N1CCCC1

Additional results follow:
hNpr1 antagonist | SMILES
0% | CN(C)CCCNC(=O)c1cc2c(n1C)CCN(Cc1ccc(F)cc1)C2
-2% | CC1CCN(C(=O)[C@@H](C)C2CC[C@@]3(C)CC[C@H](NC(=O)Cc4ccccc4)[C@@H](C)[C@@H]3[C@H]2O)CC1 (stereo partly drawn)
10% | c1cnc(-c2nc(CC3CCCNC3)no2)cn1 (stereo not drawn)
1% | COc1cccc(CN2CCC3(CC2)CC(Cc2nc(C)no2)CCO3)n1 (stereo not drawn)
-9% | Cc1ccc(Cn2c(CN3CCCC(O)(CO)C3)nc3ccccc32)cc1 (stereo not drawn)
-1% | COCCN=C1Nc2ncccc2NC12CCCN(C(=O)c1cccc(OC)c1)C2 (stereo not drawn)
? | O=[N+]([O-])c1ccc(CN2C[C@H](O)C[C@H]2c2nc(-c3ccc(C(F)(F)F)cc3)no2)cc1
5% | Cc1cn(CC(=O)N2CCn3nc(Cc4ccccc4)cc3C2)c(=O)[nH]c1=O
-18% | Cc1ccccc1-c1cc(O)c2c(c1)CN(Cc1ccoc1)CCO2
-1% | O=C(NCc1ccccc1)C1CCN(c2cnc3nccnc3c2)CC1
-28% | COc1ccc(-c2cc(N3CCN(C(=O)c4cc5ccccc5[nH]4)CC3)n[nH]2)cc1
0%[70.6 µM] | CC(=O)N1CC[C@H](c2nnc(-c3cccnc3)o2)C1
4% | CC[C@H](C)[C@@H](N)C(=O)N1CCC2(CC1)Nc1ccccc1NC2=O
23%[70.6 µM] | O=C1NC2(CCN(C(=O)c3ccccc3)C2)Oc2ccccc21 (stereo not drawn)
-1% | COCCN1CCOC[C@H]2CCN(C(=O)c3cccc4[nH]ccc34)C[C@H]21

14 successive entries from above, for reference:
hNpr1 antagonist | SMILES
-13% | Cn1nc(-c2nncn2Cc2ccccc2)c2c1CCN(C(=O)c1[nH]nc3c1COc1ccccc1-3)C2
-9%[70.6 µM] | C#CCOc1ccc(C(=O)N[C@@H]2CN(Cc3cccc(OC)c3)CCC[C@H]2O)cc1
1% | N#Cc1ccc(C(=O)N2CC(F)(F)C[C@H]2c2nc(C3CC3)no2)cc1
1% | CCOCCOC1CCN(C(=O)c2nn(C)c3ccccc23)CC1
4% | Cc1noc([C@H]2CCN(C(=O)C3CCCCC3)C[C@H]2NC(=O)C2CC2)n1
-15% | Cc1ccc(N2CCC(NC(=O)c3ccc(F)c(F)c3)C2=O)cc1C (stereo not drawn)
-22% | COc1ccccc1CN1CCN(C(=O)c2ccc3c(c2)C(O)CCCCCN3C)CC1 (stereo not drawn)
6% | O=C(C1CCN(C(=O)N2CC3CC(C2)[C@H]2CCCC(=O)N2C3)CC1)N1CCC(N2CCCCC2)CC1 (stereo partly drawn)
-11% | CNC(=O)Nc1ccc(C2(C(=O)Nc3ccc4c(c3)CCC4)CCC2)cc1
1% | O=C(NCC1CCNC1)C1CCN(c2nc(-c3ccccc3)nc3c2CCC3)CC1 (stereo not drawn)
1% | CCN1CC(Nc2ccc(-c3nc(CCCc4ccccc4)no3)cn2)CC1=O (stereo not drawn)
-12%[70.6 µM] | COc1ccc(CN2CC[C@H](c3nc4c(C(N)=O)cccc4[nH]3)C2)cc1
-3% | Cc1nc(C)n(CCCn2cnc3cn(C)nc3c2=O)n1
9%[70.6 µM] | COc1cccc(-c2nccc3c(=O)cc(N4CCOCC4)oc23)c1

New compounds follow
hNpr1 antagonist | SMILES
2% | O=C(CCc1ccnc(N2CCCC2)c1)N1CCN(c2ccccc2)CC1
28µM* | CN(C)c1ccc2ncc(Nc3ccc(Oc4ccccc4)cc3)n2n1
-2% | CCc1noc(-c2nc(Cc3cccc(F)c3)no2)n1
-10%[70.6 µM] | CC1=C[C@@H](CNCc2cccnc2)[C@H](C(C)C)C[C@H]1Cc1nnc(-c2ccccc2F)o1
6% | CCn1ccc(C(=O)N2C[C@@H](Oc3cccnc3)C[C@@H]2C(=O)N2CCOCC2)n1
-1% | CCOc1ccccc1CNC(=O)c1cc2c(N3CCCC3)nc(C)cn2n1
3% | COc1ccc(Cl)cc1C(=O)NCCc1noc(C)n1
-17% | COc1ccc(CNC(=O)[C@@H](C)C2CC[C@@]3(C)CC[C@H](NC(=O)c4ccc(C#N)cc4)[C@@H](C)[C@@H]3[C@H]2O)cc1 (stereo partly drawn)
6%[70.6 µM] | O=C1NC2(CCN(C(=O)c3ccccc3)C2)N=C1c1ccncc1 (stereo not drawn)
2%[70.6 µM] | CN1[C@@H](CCC(=O)NCc2cccs2)CNC(=O)[C@@H]2[C@H]1CCN2Cc1ccccc1
3% | COC(=O)c1ccccc1NC(=O)CN1C(=O)NC2(CCCCC2)C1=O
0% | CC1CCN(c2ncc(C(=O)O)c(-c3ccncc3)n2)CC1
0% | CCC(CC)C(=O)Nc1ccc([C@@H](O)[C@H]2COCC(=O)N2Cc2ccccc2OC)cc1
12% | O=C(COc1ccc(F)cc1)N1CCCC1c1nc(C2CCOCC2)no1 (stereo not drawn)
-26% | Cc1ccccc1C(=O)N1CCC(n2cc(-c3nc(-c4ccccc4)no3)nn2)CC1

Continued.
hNpr1 antagonist | SMILES
? | Cc1cccc(CC(=O)N2CCCCC2c2noc(COc3ccc(F)cc3)n2)c1 (stereo not drawn)
? | O=C(NC1CCN(c2cc(-c3ccccc3)[nH]n2)CC1)c1cc2ccccc2[nH]1
3% | CNC(=O)[C@@H]1CN(C(=O)c2cc3ccc(OC)cc3[nH]2)C[C@H]1C1CCN(C)CC1
-1%[70.6 µM] | Cc1cc(C)c(CNC(=O)c2cc(-c3ccc(F)cc3)cc3ncn(C)c23)c(=O)[nH]1
2% | O=C(c1cccnn1)N1C[C@@H](COCC2CC2)[C@H](c2ccncc2)C1
8% | COC(=O)C1CCN(C(=O)CC[C@H]2CNC(=O)[C@@H]3[C@@H](CCN3Cc3ccc(F)cc3)N2C)CC1
0% | Fc1ccc(-c2cc(C3CCNCC3)[nH]n2)cc1
7% | O=C(c1n[nH]c(=O)c2ccccc12)N1CC(CO)C2(CCNCC2)C1 (stereo not drawn)
4% | c1cc(-c2ccnc(NCC3(N4CCOCC4)CCCCC3)n2)ccn1
-2% | CCc1ocnc1C(=O)N1CCCC(CNC(=O)c2n[nH]c3ccccc23)C1 (stereo not drawn)
? | COc1ccc(NC(=O)c2ccc3c(c2)OCCN(CCC(C)C)C3)cn1
-6% | CCCCC(=O)N1CCc2c(nc3cc(-c4ccccc4Cl)[nH]n3c2=O)C1
-5% | CC(C)c1nc(CNC(=O)c2ccc(N3CCCC(C(N)=O)C3)nc2)no1 (stereo not drawn)
0%[70.6 µM] | CN1CCC(Cn2ccc3c(N4CCOCC4)nc(-c4cccc5[nH]ccc45)cc32)CC1
-4%[70.6 µM] | COc1ccc(NC(=O)c2ccc3c(c2)C2(CCN(C)C2)CN3Cc2ccccc2)cc1 (stereo not drawn)
1% | CO[C@H]1C(=O)N(C2CCN(S(=O)(=O)Cc3ccccc3)CC2)[C@H]1c1ccncc1
